# Cruzain inh Det = cruzain (T. cruzi) inhibition with detergent; purified cruzain, Z-FR-AMC fluorescence, 0.01% Triton; Potency, µM, without a hit: max response, negative = inhibition, most hits filed as inhibitors; actives 0.43% (n = 200,000); AID 1478;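 further: plate controls were neutral wells for no effect and buffer without enzyme for full effect; nearly all actives have a fitted effect of over 40% in size; top concentration of the series not given in the record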
# Target sequence (P25779 123-467 limits assumed): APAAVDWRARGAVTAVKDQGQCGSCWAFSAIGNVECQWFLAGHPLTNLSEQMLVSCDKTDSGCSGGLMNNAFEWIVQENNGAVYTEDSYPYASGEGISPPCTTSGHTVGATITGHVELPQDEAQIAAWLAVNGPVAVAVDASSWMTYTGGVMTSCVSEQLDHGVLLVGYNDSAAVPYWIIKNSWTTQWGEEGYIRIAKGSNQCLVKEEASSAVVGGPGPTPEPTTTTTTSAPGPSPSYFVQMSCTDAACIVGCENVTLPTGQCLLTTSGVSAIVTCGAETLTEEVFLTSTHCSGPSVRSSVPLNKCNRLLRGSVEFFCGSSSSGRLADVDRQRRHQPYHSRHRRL
#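 Sodium acetate buffer (100 mM, pH 5.5) containing 5 mM DTT and 0.01% Triton X-100 hosted 1.5 nM cruzain and test compound for 15 min at room temperature. Cleavage of 2 uM Z-FR-AMC was then tracked by fluorescence.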
# Marburg entry inh = inhibitors of Marburg virus binding or cell entry; Marburg virus pseudotyped entry inhibition, cell reporter; control for the full effect not named in the record; about a third of the inactives were read at about 46 µM; Potency, µM (doses to about 37.8 µM), without a hit: at the top dose activity change, negative = inhibition, usual class: inhibitors; actives 1.8% (n = 300,000); AID 540276; active = well fitted inhibition curve with a large enough effect; inconclusive = small, poorly fitted or top-dose-only effect, or effect the other way; inactive = flat fitted curve, though single readings scatter; tested in HEK293 cells; about a fifth of its hits are not listed in these tables; further: on the % scale 0 is the no-effect control and ±100 the full control effect; luciferase read-out
# LASV entry inh = inhibitors of Lassa virus binding or cell entry | Lassa virus pseudotype entry inhibition, cell reporter; control for the full effect not named in the record | Potency, µM (highest dose often 37.9 µM), without a hit: at the highest dose activity change, negative = inhibition, usual class: inhibitors | actives 1.2% (n = 300,000) | AID 540256; active means well fitted inhibition curve with a large enough effect; inconclusive means small, poorly fitted or top-dose-only effect, or effect the other way; inactive means flat fitted curve, though single readings scatter; tested in HEK293 cells; further: on the % scale 0 is the no-effect control and ±100 the full control effect; nearly all actives have a fitted effect of over 50% in size; luciferase read-out
# StopGo reporter = FMDV 2A StopGo reporter, luciferase signal. actives 1.2% (n = 410,000). human cells with a luciferase reporter of 2A StopGo recoding; control for the full effect not named in the record. Potency, µM (doses to about 57.9 µM), without a hit: at the highest dose signal change, negative = less light. AID 1159524; active = well fitted falling curve with a large enough effect; inconclusive = small, poorly fitted or top-dose-only effect; inactive = no such curve, though single readings can be large or run the other way; tested in HEK293T cells; further: on the % scale 0 is the no-effect control and ±100 the full control effect; nearly all actives have a fitted effect of over 45% in size; luciferase light after 4 h
# RE007 growth inh = less growth of the S. pombe RE007 Vpr strain. S. pombe RE007 Vpr strain, BacTiter-Glo ATP luminescence, 24 h; control for the full effect not named in the record. Potency, µM (series often up to 92.2 µM), for the others: at the top dose activity change, negative = less growth. actives 0.21% (n = 360,000). AID 651644; active = well fitted falling curve with a large enough effect; inconclusive = small, poorly fitted or top-dose-only effect; inactive = no such curve, though single readings can be large or run the other way;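 further: on the % scale 0 is the no-effect control and ±100 the full control effect; nearly all actives have a fitted effect of over 50% in size; the assay follows cell death caused by Vpr and the record does not say whether a fall means rescue or toxicity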
#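 Fission yeast RE007 carrying one integrated HIV-1 vpr copy, seeded at OD 0.01 in PMG+AL medium with 23 nL pinned compound. Grown 24 h at 30 degrees; viability read by BacTiter-Glo luminescence after 5 min.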
# SARS PLpro yeast = inhibitors of SARS-CoV papain-like protease in yeast; S. cerevisiae expressing SARS-CoV PLpro, growth rescue; control for the full effect not named in the record; Potency, µM (titrated, usually from 32.9 µM), without a hit: at the highest dose activity, positive = growth rescue; actives 0.19% (n = 330,000); active means well fitted rising curve with a large enough effect; inconclusive means small, poorly fitted or top-dose-only effect; inactive means no such curve, though single readings can be large or run the other way; further: 0% is about no effect; nearly all actives have a fitted effect of over 55% in size; growth read by luminescence after 48 h
# NS1 function inh = blocks influenza NS1 protein function. Potency, µM (top dose mostly 46.1 µM), without a hit: at the top dose activity, positive = more growth. AID 2326. actives 0.4% (n = 270,000). S. cerevisiae slowed by influenza A NS1, growth recovery by OD600; active means well fitted rising curve with a large enough effect; inconclusive means small, poorly fitted or top-dose-only effect; inactive means no such curve, though single readings can be large or run the other way; further: nearly all actives have a fitted effect of over 50% in size
#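 Recovery from NS1-induced slow growth read by OD600 in budding yeast switched to galactose assay medium (pH 6.0, -URA) at 1:100 dilution. Compound 23 nl per well; the matching strain lacking NS1 serves as control.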
# Cruzain inh noDet = blocks cruzain activity in detergent-free assay | actives 2.3% (n = 200,000) | Potency, µM, for inactives: max response, negative = inhibition, hits mostly inhibitors | purified cruzain, Z-FR-AMC fluorescence, no detergent | AID 1476;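 further: plate controls were enzyme without inhibitor for no effect and buffer without enzyme for full effect; nearly all actives have a fitted effect of over 40% in size; top concentration of the series not given in the record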
#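 Purified cruzain at 1.5 nM, pre-incubated 15 min with compound at room temperature in 100 mM sodium acetate pH 5.5, 5 mM DTT, 0.00005% Triton X-100. Reaction started with 2 uM Z-FR-AMC; AMC fluorescence increase over 60 s gives rate.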
# Starred values were filed as active, the others as inactive; ? = inconclusive; / = no result given; & = joins results of further samples; [ ] = remark or other dose. Unless noted, the call rests on the fitted dose curve; in most records, active means well fitted curve in the direction sought with a large enough effect; inconclusive means small, poorly fitted or top-dose-only effect, or another doubt; inactive means no such curve, though single readings can be large; an effect the other way counts as inactive or inconclusive. Potency means the concentration at half of the fitted maximal effect. Compounds as they come; overall some 4.7% were active at least once.
SMILES,Cruzain inh Det,Marburg entry inh,LASV entry inh,StopGo reporter,RE007 growth inh,SARS PLpro yeast,NS1 function inh,Cruzain inh noDet
FCCCOc1ccc(-c2nccc(-c3ccc(F)cc3)n2)cc1,-8.9%,0%[46.1 µM],4%,-13%,-25%,-13%,-5%,-6%
N#Cc1ccc(CN2C=NS(=O)(=O)c3ccccc32)cc1,/,8%[46.1 µM],-15%[46.1 µM],13%,6%,-3%,0%,/
Cc1ccc(Cn2c(C(=O)O)c(CNCCc3ccco3)c3ccc(C)cc32)cc1,-4.5%,/,-6%[46.1 µM],7%,/,/,/,?
CN1C(=O)NC(NC(=O)c2cccs2)(C(F)(F)F)C1=O (configuration not stated),-4.3%,-3%,12%,2%,-7%,0%,-7%,8%
O=S(=O)(c1ccc(-c2cc(C(F)(F)F)on2)s1)N1CCN(c2ccc(F)cc2)CC1,7.2%,/,-2%[46.1 µM],-24%,/,/,/,-9%
O=C1c2ccccc2C(=O)N1CCCOCc1c[nH]c(=O)[nH]c1=O,3.1%,1%,8%,-24%,-2%,7%,5%,-5%
O=C1OCCC1Sc1nc2ccccc2n1Cc1ccccc1 (configuration not stated),3.8%,28%,-1%,9%,3%,0%,-39%,-6%
Cn1c(=Nc2ccccc2)sc2ccccc21,-2.2%,17%,?,49%[activator],1%,-4%,-13%,-10%
O=C(c1cccc(S(=O)(=O)N2CCCC2)c1)N1CCN(c2ncccn2)CC1,-0.6%,12%,19%,0%,0%,-2%,-21%,-9%
CN1CCN(C(=O)CNC(=O)Cc2ccc(Cl)cc2)CC1,/,0%[46.1 µM],11%[46.1 µM],-5%,29%,-1%,6%,/
CN(C1CCCCC1)S(=O)(=O)c1ccc(C(=O)Nc2sc3c(c2C(N)=O)CC(C)(C)NC3(C)C)cc1,0.3%,-13%&-13%[46.1 µM],?,-12%&-15%,8%,4%,?,4%
Cc1cc(Cl)c(S(=O)(=O)N2CCN(c3ccccc3)CC2)cc1OCC(N)=O,-5.5%,?,-7%,?,21%,14%,5%,?
CCC(Sc1nc2ncccc2[nH]1)C(=O)N1CCOCC1 (configuration not stated),/,/,/,-18%,7%,-4%,2%,/
O=C(CN1CCCC1)Nc1ccccc1Cl,9.7%,?,-6%,-11%,-13%,0%,-4%,10%
CC(O)CNc1cnccn1 (configuration not stated),/,6%[46.1 µM],-4%[46.1 µM],-5%,0%,5%,/,/
CCOc1ccc(S(=O)(=O)NCCc2csc3nc(-c4cccc(C)c4)nn23)cc1,-9.1%,/,-1%[46.1 µM],4%,/,/,/,21%
CCN(CC)C(=O)c1sc2nc(-c3ccccn3)[nH]c(=O)c2c1C,/,-20%[46.1 µM],-16%,31%[activator],-16%,/,-8%,/
COc1ccc(CNC(=O)c2ccc[nH]2)cc1Cl,/,-7%[46.1 µM],?,21%,0%,0%,5%,/
COC(=O)c1ccccc1S(=O)(=O)N1CCC(C(=O)OC(C)C(=O)Nc2ccc(NC(C)=O)cc2)CC1 (configuration not stated),/,2%,3%,-18%,-7%,/,-2%,/
O=C(CSc1nc(COc2ccccc2)nc2ccccc12)NC1CCCC1,/,-12%[46.1 µM],0%,-24%,-21%,1%,2%,/
CCOC(=O)NNC(=S)Nc1c(C)n(C)n(-c2ccccc2)c1=O,/,-12%[46.1 µM],18%,-7%,10%,1%,-3%,/
NC(=O)c1ccc(-c2csnn2)cc1,/,4%,-3%,10%,10%,-2%,-3%,/
COc1cccc(NC2=Nc3cccc4cccc2c34)c1,-7.2%,-10%,25%,14%,/,10%,-9%,3%
CC1(C)CC(=O)C=C(N=CC2=C(O)CC(C)(C)CC2=O)C1,3.4%,7%,-3%,-1%,2%,/,5%,-7%
CCOc1cc(NC(=O)c2cccs2)c(OCC)cc1NC(=O)CCC(=O)NCc1ccccn1,/,/,/,-18%,0%,0%,9%,/
CCN(CC)Cc1ccccc1Sc1ccccc1,-1.0%,?,?,-2%,-7%,-12%,-12%,-8%
C=CCNC(=O)/C(C#N)=C/c1ccc(OS(=O)(=O)c2ccc(C)cc2)c(OC)c1,-1.4%,?,13µM*,20µM*,16%,-72%,-37%,?
Cc1ccc(S(=O)(=O)Nc2ccncc2)c(C)c1N(C)S(=O)(=O)c1ccc(Cl)cc1,-2.5%,22%,5%,-19%,-2%,14%,0%,12%
COc1cccc(OC2OC3COC(C)(C)OC3C(O)C2NC(C)=O)c1 (configuration not stated),/,0%[46.1 µM],2%[46.1 µM],11%,2%,0%,1%,/
CC1CCN(S(=O)(=O)c2ccc(C(=O)NCc3cccnc3)cc2)CC1,/,-7%,0%,1%,-9%,3%,0%,/
O=C(COC(=O)Cc1c(F)cccc1Cl)Nc1nnc(-c2ccccc2)o1,/,11%,14%,13%,-15%,/,/,/
CN(C)c1cccc(NC2=CC(=[N+]3CCOCC3)CC(C)(C)C2)c1,-8.6%,-13%,-26%,4%,-12%,8%,-1%,1%
O=C(N/N=C/c1cn(Cc2cccc(F)c2)c2ccccc12)c1cc(O)cc(O)c1,/,/,/,-22%,30%,6%,16%,/
C=CCNC(=O)/C(C#N)=C/c1ccccc1[N+](=O)[O-],-5.4%,?,4%,-5%,-22%,-12%,-9%,-2%
CCOc1cc(C2NC(=O)c3c(sc4c3CCN(C)C4)N2)ccc1OC(=O)c1ccc(Br)cc1 (configuration not stated),-0.9%,/,5%[46.1 µM],1%,/,/,/,8%
COCCCNC(=O)c1c(NC(=O)c2cc(=O)c3ccccc3o2)sc2c1CCCC2,-0.2%,0%[46.1 µM],3%[46.1 µM],4%,/,/,/,-6%
Cc1ccc(CCNC(=O)c2c(C)nn(-c3ccc(F)cc3)c2-n2cccc2)cc1,-7.0%,/,-10%[46.1 µM],?,/,/,/,13%
Cn1c(=O)n(C)c2cc(NC(=O)COc3ccc(Cl)cc3)ccc21,/,?,-21%[46.1 µM],?,14%,-4%,/,/
CC(NC(=O)CCc1nc2cc(S(=O)(=O)N3CCOCC3)ccc2n1C)c1ccc(S(N)(=O)=O)cc1 (configuration not stated),/,18%,0%,-10%,-4%,7%,3%,/
CCCCCC(=O)Nc1cccc(-c2nc3ncccc3o2)c1,-4.5%,?,0%,/,8%,-3%,-11%,-1%
CCCc1nc2scc(-c3ccc(C)cc3)c2c(=O)n1N,-3.8%,?,-18%,-17%,1%,-12%,-20%,4%
Cn1c(CNC(=O)OC(C)(C)C)n[nH]c1=S,/,-7%[46.1 µM],1%[46.1 µM],-8%,-22%,0%,2%,/
CCOCCc1nn2c(=O)cc(COC(=O)COc3ccccc3Cl)nc2s1,-2.8%,/,-3%[46.1 µM],-13%,/,/,/,10%
O=C(CN1C(=O)c2ccccc2C1=O)OC(C(=O)c1ccc(Cl)cc1)c1ccccc1 (configuration not stated),1.6%,-8%,0%,-17%,-12%,2%,?,32µM*
Cc1nn(CC(=O)Nc2ccc(N3CCOCC3)cc2)c(C)c1Cl,/,20%,9%,-6%,-4%,-5%,5%,/
Cc1cc(C)cc(NC(=O)Nc2ccccc2OCc2cc(=O)n3ccccc3n2)c1,3.4%,/,11%[46.1 µM],35%[activator],/,/,/,-17%
CCC(=O)Nc1cccc(-c2nc3cc(C)ccc3o2)c1,-5.2%,/,?,14%,/,/,/,?
Cc1ccc(C(=O)NC(=S)NCC2CCCO2)cc1Br (configuration not stated),-8.0%,?,1%,49%[activator],?,3%,-5%,-13%
COc1ccc(CNC(=O)c2ccc(CS(=O)c3ccccc3)o2)cc1 (configuration not stated),/,/,/,1%,-7%,-2%,-6%,/
COc1ccccc1S(=O)(=O)Cc1ccc(C(=O)NCC(OC)OC)o1,/,/,/,5%,3%,0%,1%,/
O=C1NC(=O)C(C2CCCCCC2)C(=O)N1,/,15%[46.1 µM],22%[46.1 µM],-8%,11%,/,/,/
COc1cccc(C2CC(c3cccc(Br)c3)n3nc(N)nc3N2)c1 (configuration not stated),0.7%,-2%,/,-20%,-16%,-4%,4%,4%
O=C(Nc1ccc(CN2CCOCC2)cc1)c1ccc(-c2ccc(Cl)cc2Cl)o1,/,?,-19%,?,11%,-1%,-1%,/
CCCCNc1nc2c(c(=O)n(Cc3ccc(Cl)c(Cl)c3)c(=O)n2C)n1C,-8.8%,-16%[46.1 µM],-15%[46.1 µM],?,/,/,/,-2%
CCN(C(=O)CN(C)S(=O)(=O)c1ccc2c(c1)n(C)c(=O)c(=O)n2C)c1cccc(C)c1,-1.7%,-11%[46.1 µM],1%[46.1 µM],-8%,/,/,/,4%
Cc1cccc(C(=O)NCC(=O)N2CCN(c3ccccn3)CC2)c1,/,?,19%,11%,6%,1%,/,/
CCOc1ccc(OCC)c(NC(=O)C2CCCN(c3ncccn3)C2)c1 (configuration not stated),-2.9%,5%,0%,0%,2%,2%,-7%,-5%
COc1ccc2[nH]cc(CCN3C(=O)CCC3=O)c2c1,1.5%,8%,-8%,-8%,-4%,4%,2%,5%
COCCC(=O)N1CCC(Oc2ccc(C(=O)NCCc3cn[nH]c3)cc2)CC1,/,5%[46.1 µM],?,-17%,-11%,-2%,2%,/
Cc1cc(Nc2ncc(Cl)cc2Cl)n[nH]1,-2.3%,10%,1%,17%,-4%,-1%,-12%,-4%

# Next part.
SMILES,Cruzain inh Det,Marburg entry inh,LASV entry inh,StopGo reporter,RE007 growth inh,SARS PLpro yeast,NS1 function inh,Cruzain inh noDet
CCC(C)C(NS(=O)(=O)c1ccc(C)cc1)C(=O)NCCCN1CCOCC1 (configuration not stated),/,/,/,-16%,-5%,3%,-1%,/
O=C(NC1CCCC1)C(c1ccccc1)N(Cc1ccc(F)cc1)C(=O)c1csnn1 (configuration not stated),/,?,?,2%,16%,0%,1%,/
CCC1=NC(c2ccccc2Cl)N(O)C1(C)C (configuration not stated),2.8%,12%,1%,10%,-4%,5%,3%,0%
O=[N+]([O-])c1ccc(N2CCN(CCOCCO)CC2)c([N+](=O)[O-])c1,/,/,/,-11%,17%,1%,1%,/
O=c1c2ccccc2[nH]c(=S)n1-c1ccc(Br)cc1,/,0%[46.1 µM],4%[46.1 µM],44%[activator],6%,-1%,/,/
COc1ccc(NC(=S)N(CCO)Cc2cc3c(C)cc(C)cc3[nH]c2=O)cc1,/,/,/,0%,-1%,-1%,-4%,/

# Assay outcomes deposited in PubChem by National Center for Advancing Translational Sciences (NCATS).
